Assay outcomes from PubChem BioAssay.
VDR inhibitor: inhibitors of human vitamin D receptor; P11473; VDR-SRC2-3 peptide fluorescence polarization, 2 h; Potency, µM, for inactives: max response, negative = inhibition, hits mostly inhibitors; 0.93% of 400,000 active; AID 504847; active = well fitted inhibition curve with a large enough effect; inconclusive = small, poorly fitted or top-dose-only effect, or another doubt; inactive = no such curve, though single readings can be large or run the other way; note: series mostly up to about 120 µM
Target sequence (P11473 whole entry, looked up): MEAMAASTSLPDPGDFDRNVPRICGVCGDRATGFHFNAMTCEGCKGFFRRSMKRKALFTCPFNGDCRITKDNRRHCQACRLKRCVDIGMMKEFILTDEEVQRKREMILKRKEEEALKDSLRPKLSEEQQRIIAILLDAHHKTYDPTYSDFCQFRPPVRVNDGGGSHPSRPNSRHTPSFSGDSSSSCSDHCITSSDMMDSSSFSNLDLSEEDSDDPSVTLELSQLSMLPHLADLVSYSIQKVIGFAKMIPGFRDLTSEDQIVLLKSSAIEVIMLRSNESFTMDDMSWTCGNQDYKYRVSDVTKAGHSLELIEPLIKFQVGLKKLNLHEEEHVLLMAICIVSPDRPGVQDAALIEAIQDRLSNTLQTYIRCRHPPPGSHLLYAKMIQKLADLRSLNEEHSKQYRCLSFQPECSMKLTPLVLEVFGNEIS
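Signal is fluorescence polarization, reporting how far test compounds block the interaction of VDR with the SRC2-3 coregulator peptide after a 2 h room-temperature incubation.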
Numbers without * were called inactive; ? = inconclusive; & = joins results of further samples; [ ] = another dose, or the depositor's remark. % is set by controls: 0 for no effect and ±100 for the full control effect; potency is the fitted concentration of half-maximal effect. Only part of the results is shown; rates above refer to the full screens.

VDR inhibitor	SMILES
6%	O=C(Cc1ccccc1F)Nc1ccc(S(=O)(=O)N2CCCC2)cc1
-8%	CCOc1ccc(C(=O)N2CCSC2=S)cc1
-17%	CCOc1ccc(CNc2ccc3c(c2)ncn3C)cc1
3%	Cn1cc([N+](=O)[O-])c(C(=O)Nc2ccc3c(c2)OCCO3)n1
-4%	CCc1ccc(N/C(N)=N/c2nc(CSc3ccccn3)cc(=O)[nH]2)cc1
-3%	CCc1nc2ccccc2c(C(=O)OCC(=O)Nc2cccc(S(=O)(=O)NC3=NCCCCC3)c2)c1C
2%	COc1cccc(Cc2nc3ccccc3nc2SCC(=O)Nc2ccccc2F)c1
?	Cc1ccc(NC2=C(CC(=O)O)C(c3ccc(F)cc3)N(c3ccc(C)cc3)C2=O)cc1 (stereo not drawn)
-14%	Cc1cccc2nc(-c3ccc(Cl)s3)c(Nc3ccc4c(c3)OCCO4)n12
-1%	Cc1nc(-c2ccccc2)sc1C(=O)Nc1ccc(S(N)(=O)=O)cc1
-15%	COc1ccc(NC(=O)OC(C)C)cc1
-28%	Cc1ccc(S(=O)(=O)N2CCCCC2C(=O)Nc2nncs2)cc1 (stereo not drawn)
-8%	Cc1cc(N/C=C/C(=O)c2cccc3ccccc23)no1
4%	Cc1ccc(S(=O)(=O)N[C@H](C(=O)N2CCC(C(=O)N[C@@H](CCC(N)=O)C(=O)O)CC2)C(C)C)cc1
-4%	COCC(=O)Nc1cc([N+](=O)[O-])ccc1C

Overlap with the part before: three entries; new compounds follow.
VDR inhibitor	SMILES
-8%	Cc1cc(N/C=C/C(=O)c2cccc3ccccc23)no1
4%	Cc1ccc(S(=O)(=O)N[C@H](C(=O)N2CCC(C(=O)N[C@@H](CCC(N)=O)C(=O)O)CC2)C(C)C)cc1
-4%	COCC(=O)Nc1cc([N+](=O)[O-])ccc1C
9%	COc1ccc(S(=O)(=O)N2CCN(C(=O)NCc3ccccc3)CC2)cc1
-4%	COc1ccc(NC(=O)COC(=O)CCOc2ccccc2C)cc1Cl
11%	CCOCCc1nnc(NC(=O)C(=O)c2cc(C)n(-c3ccc(Cl)cc3)c2C)s1
6%	CN(CC(=O)NCc1ccc(F)cc1)Cc1cccc(Cl)c1
-15%	CCc1ccc(C(=O)c2cn(CC(=O)Nc3ccc(C)c(C)c3)c3ccccc3c2=O)cc1
0%	Clc1ccc(C[n+]2cc(-c3ccc(Cl)cc3)n3c2CCC3)cc1
-21%	Cc1ccc(NC(=S)N2CCN(c3ccccn3)CC2)cc1C
-20%	Cc1cccc(N2CCN(C(=O)C(Cc3ccccc3)n3cccc3)CC2)c1C (stereo not drawn)
-14%	Cc1cccc(N(C)c2nc3ccccc3c3nnc(C)n23)c1
-16%	CCn1c2ccccc2c2nnc(SCCN3CCOCC3)nc21
-12%	CCc1ccc(NC2=NC(C(=O)c3ccccc3)CC(=O)N2)cc1 (stereo not drawn)
-15%	O=C(CSc1nc2ccccc2o1)NCc1n[nH]c(=O)c2ccccc12
9%	CC(C)CCNC(=O)c1cc2cc(S(=O)(=O)N3CCCCC3)ccc2n1C
-9%	Cc1cccc2cn[nH]c12
-2%	CNC(=O)Nc1ccc2snnc2c1

The results go on:
VDR inhibitor	SMILES
-22%	COc1cccc(OC)c1C(=O)Nc1ccc(C(=O)NCc2ccccc2)cc1
-16%	COc1cccc(NC(=S)Nc2cccnc2)c1
-6%	CCOc1ccc(C2C(C(=O)c3ccc(C)o3)=C(O)C(=O)N2c2cc(C)on2)cc1OC (stereo not drawn)
-2%	O=C(CC(=O)N/N=C/c1ccc(Cl)cc1Cl)NCc1ccccc1
4%	COc1ccc2cc(C)c(SCC(=O)Nc3cc(C)on3)nc2c1
21%	O=C(CCc1ccccc1)NNC(=O)Nc1ccccc1
15%	C(=C\c1cc(/C=C/c2ccccc2)ncn1)/c1ccccc1
3%	CC(C)OC1(c2ccccc2)OC(=O)c2ccccc21 (stereo not drawn)
-6%	O=C(Cc1c[nH]c2ccccc12)N1CCc2ccccc21
10%	CCC(=O)Nc1ccccc1-c1nc2ccccc2n(C(C)C(=O)Nc2cccc(Cl)c2C)c1=O (stereo not drawn)
1%	Cc1cccc(OCCC(=O)Nc2ccc(S(=O)(=O)N3CCCC3)cc2)c1
-4%	CCN1C(=O)[C@H]2[C@@H](c3ccc(-c4ccc5c(c4)OCO5)c(OC)c3)N[C@@](CC(C)C)(C(=O)OC)[C@H]2C1=O
5%	COc1ccccc1N1CCN(CC(O)COc2ccc3c(C)cc(=O)oc3c2)CC1 (stereo not drawn)
-15%	OCCNc1nc2ccc(Cl)cc2[nH]1
44%[activator]	COc1cc(OC)cc(C(=O)NCC(=O)OCC(=O)/C=C2/N(C)c3ccccc3C2(C)C)c1

Following part
VDR inhibitor	SMILES
-10%	CN1C2C=C3C(C#N)=C(N)C(C#N)(C#N)[C@@H](c4ccsc4)[C@@H]3C1CC2 (stereo partly drawn)
-4%	Cc1ccc2c(C)[nH]c(=O)cc2c1
-5%&-19%&-3%	Cc1ccc(C(C)C)cc2c(C)ccc1-2
-11%	Cc1onc(-c2ccccc2)c1C(=O)N1CCN(S(=O)(=O)c2ccc(OC(F)(F)F)cc2)CC1
-12%	Cc1cccc(OCCC(=O)OC(C)C(=O)Nc2ccc(Cl)cn2)c1 (stereo not drawn)
3%	Cc1ccc(NC(=O)CCN2C(=O)C3C4CCC(C4)C3C2=O)cc1Cl (stereo not drawn)
4%	O=C(C1CCC1)N1CCN(Cc2ccccc2)CC1
0%	COc1ccccc1Oc1ccc(Oc2ccccc2OC)cc1
8%	Nc1nonc1-n1nnc(C(=O)N/N=C/c2cccs2)c1-c1ccc2c(c1)OCO2
6%	Cc1cc(C)c(Cn2c(=O)n(CCCC(=O)NCc3ccco3)c(=O)c3ccccc32)c(C)c1
-2%	Cn1c(O)c(N=Nc2nc(-c3ccccc3)cs2)c2ccccc21
-6%	Cc1ccc(-n2cc(CN3CCN(C(=O)c4ncn[nH]4)CC3)c(-c3ccc(F)cc3)n2)cc1
-1%	O=C(NCc1cccc(F)c1)C1CCC(=O)N(CC2CCCCC2)C1 (stereo not drawn)
0%	Nc1cc(C(=O)N2CCCC2)cc(C(=O)N2CCCC2)c1
-3%	COc1ccc(CNC(=O)COC(=O)CCc2nc3ccccc3c(=O)[nH]2)cc1

Carrying on:
VDR inhibitor	SMILES
2%	COc1ccc(NC(=O)C2CCC(=O)N2S(=O)(=O)c2ccc(C)cc2)c(OC)c1 (stereo not drawn)
4%	COc1ccc(/C=C2\CCCC3C2=NN(C(=O)CSc2ncn[nH]2)C3c2ccc(OC)cc2)cc1 (stereo not drawn)
?	O=C(CSc1nnc2n1CCCN2C(=S)Nc1ccc(Cl)cc1)c1ccccc1
-9%	Cc1noc(C)c1NC(=O)Nc1cccc2c1O[C@H](CN(C)C(=O)NC(C)C)[C@@H](C)CN([C@H](C)CO)C2=O
-1%	CC1CCc2onc(C(=O)NCc3ccco3)c2C1 (stereo not drawn)
-16%	O=C(NNC(=S)NCc1ccco1)C(c1ccccc1)c1ccccc1
17%	COC(=O)c1cn(NC(=O)c2ccc3c(c2)OCO3)c(=O)c2ccccc12
-1%	CCOC(=O)C1CCN(C(=O)CCS(=O)(=O)Cc2ccccc2)CC1
-3%	Brc1ccc(-c2nc3ccccn3c2Nc2ccc3c(c2)OCCO3)o1
12%&1%	COc1ccc(C)cc1Nc1c2c(nc3ccccc13)CCC2
11%	O=C(CSCc1cc(=O)c2ccccc2[nH]1)Nc1cccc(C(F)(F)F)c1
6%	CCOC(=O)c1ccc(NC(=O)CC2C(=O)N(c3ccccc3)C(=O)N2CCCOC)cc1 (stereo not drawn)
2%	Cc1ccccc1Nc1nn2c(=O)c3ccc(C(=O)N4CCCC(C)C4)cc3nc2s1 (stereo not drawn)
8%	Cc1ccc(OCC(O)CN2CCN(c3ccc(C)cc3)CC2)cc1 (stereo not drawn)
10%	CNC(=O)C1CC(=O)N/C(=N/N=C(\C)c2cccs2)S1 (stereo not drawn)

Further compounds
VDR inhibitor	SMILES
-5%	O=C(C1=C[C@H](c2csc3ccccc23)C[C@H](OCc2ccc(CO)cc2)O1)N1CCCCCCC1
-20%	COc1ccc(C(=O)Nc2ccc3c(c2)OCCO3)cc1Br
-13%	CN(C(=O)c1coc(=O)c2ccccc12)c1ccc(F)cc1
-7%	O=C(O)CC(c1ccccc1)n1cccc1 (stereo not drawn)
-4%	CS(=O)(=O)N1CCC(CO)(Cc2ccccc2C(F)(F)F)CC1
-9%	Cc1ccc(-n2nc3c(c2NC(=O)c2ccco2)CS(=O)(=O)C3)cc1C
1%	CCC(C)NC(=O)c1c(C)cc(=O)oc1C (stereo not drawn)
-8%	O=C(CN1CCc2ccccc21)NCc1ccc2c(c1)OCO2
-10%	O=C(Nc1ccccc1)N1CCN(C2c3ccccc3-c3ccccc32)CC1
1%	COc1ccc(NS(=O)(=O)c2cccc(C(=O)NC3CCC(O)CC3)c2)cc1 (stereo not drawn)
36%[activator]	O=C(CSc1ncccc1-c1nc2ccccc2[nH]1)N1CCN(c2ccccc2F)CC1
2%	COc1c2c(cc3c1C(c1c(O)c4ccccc4oc1=O)N(C)CC3)OCO2 (stereo not drawn)
11%	Cc1[nH]n(-c2ccccc2)c(=O)c1/C=N/Nc1nncc(-c2ccccc2)n1
14%	COc1cc(C(=O)Nc2cc(S(=O)(=O)N3CCOCC3)ccc2N2CCOCC2)cc(OC)c1C
-3%	CC(C)C(NC(=O)c1cccc(S(=O)(=O)N2CCOCC2)c1)C(=O)NCCc1ccccn1 (stereo not drawn)

(cont.)
VDR inhibitor	SMILES
-3%	CCn1nc(C(=O)OCC(=O)N2CCc3ccccc32)c2ccccc2c1=O
31%[activator]	Cc1cc(Cl)ccc1OCC(=O)Nn1c(C)ccc1C
3%	Cc1cccc(-n2c(C)cc(/C=N/n3cnnc3)c2C)c1
-8%	COc1ccc(Nc2c[nH]c(=O)[nH]c2=O)cc1
0%	O=C(c1ccc(N2CCCC2)c([N+](=O)[O-])c1)N1CCc2ccccc2C1
?	Cc1ccc(F)cc1NC(=O)CSCc1nc2sc(C)c(C)c2c(=O)[nH]1
7%	CCC1C(O)=C(c2ccccn2)C(=N)N1c1ccccc1 (stereo not drawn)
11%	CCc1nnc(SCC(=O)Nc2ccc(C(C)=O)cc2)nc1CC
?	Cc1cc(C)c(S(=O)(=O)Nc2nnc(C)s2)c(C)c1
0%	COc1cc(/C=C/C(=O)O)cc(S(=O)(=O)Nc2ccc3nc(C)sc3c2)c1OC
6%	CC(C)(C)NC(=O)Cn1cnc([N+](=O)[O-])n1
-17%	N#Cc1cc2cc3ccccc3nc2n2c(=O)c3ccccc3nc12
-8%	COCCNC(=S)N(Cc1cccnc1)Cc1ccc(OC)c(OC)c1
-6%	Cc1c(C(=O)NC2=NCCS2)oc2ccccc12
13%	CCOC(=O)c1c(S(=O)(=O)NCC(=O)N2CCN(c3ccc(F)cc3)CC2)c(C)n(C)c1C

New compounds follow.
VDR inhibitor	SMILES
-20%	Cc1sc(NC(=O)C2CCCCC2C(=O)O)c(C(N)=O)c1-c1ccccc1 (stereo not drawn)
-3%	Cc1cc(C)cc(NC(=O)C2CCCN2C(=O)Oc2ccccc2)c1 (stereo not drawn)
-1%	Cc1ccc(Cn2c(Sc3nccc(C)n3)nc3c2c(=O)[nH]c(=O)n3C)cc1
24%	COc1ccccc1OC(C)C(=O)O (stereo not drawn)
15%	O=S(=O)(/C=C/c1ccccc1)N1CCNCC1
-4%	O=C(CCC1COc2ccccc2O1)NCc1ccccc1 (stereo not drawn)
-3%	CN(C)CCN(C(=O)c1ccc2ccccc2c1)c1nc2ccc(Br)cc2s1
-8%	CCOCCn1c(=NC(=O)/C=C/c2ccccc2Cl)sc2cc(NC(C)=O)ccc21
-5%	Cc1ccc(S(=O)(=O)N2CCC(C(=O)NC3CC3)CC2)cc1
-13%	COC(=O)c1c(-c2cc(C)ccc2C)csc1NC(=O)C1CC=CCC1C(=O)O (stereo not drawn)
-25%	CCOc1ccc(N=Cc2ccc3ccccc3c2)cc1
50µM*	COc1ccc(C(=O)n2nnc3ccccc32)cc1OC
-4%	CC(=O)Nc1ccc(S(=O)(=O)NCCN2CCNC2=O)cc1Cl
-3%	O=C(NC(=S)Nc1ccccc1CO)C1CCCCC1
-2%	CCOc1cc(CNCCN2CCOCC2)ccc1OCc1ccccc1Cl
-21%	Cc1cc2nc(-c3cccc(NC(=O)c4cccc5ccccc45)c3)oc2cc1C
-7%	Cn1nnnc1NCc1ccc(Cl)c(Cl)c1

Entries from the list above that contain a Cl atom, in the order listed:
VDR inhibitor	SMILES
-14%	Cc1cccc2nc(-c3ccc(Cl)s3)c(Nc3ccc4c(c3)OCCO4)n12
-4%	COc1ccc(NC(=O)COC(=O)CCOc2ccccc2C)cc1Cl
11%	CCOCCc1nnc(NC(=O)C(=O)c2cc(C)n(-c3ccc(Cl)cc3)c2C)s1
6%	CN(CC(=O)NCc1ccc(F)cc1)Cc1cccc(Cl)c1
0%	Clc1ccc(C[n+]2cc(-c3ccc(Cl)cc3)n3c2CCC3)cc1
-2%	O=C(CC(=O)N/N=C/c1ccc(Cl)cc1Cl)NCc1ccccc1
10%	CCC(=O)Nc1ccccc1-c1nc2ccccc2n(C(C)C(=O)Nc2cccc(Cl)c2C)c1=O (stereo not drawn)
-15%	OCCNc1nc2ccc(Cl)cc2[nH]1
-12%	Cc1cccc(OCCC(=O)OC(C)C(=O)Nc2ccc(Cl)cn2)c1 (stereo not drawn)
3%	Cc1ccc(NC(=O)CCN2C(=O)C3C4CCC(C4)C3C2=O)cc1Cl (stereo not drawn)
?	O=C(CSc1nnc2n1CCCN2C(=S)Nc1ccc(Cl)cc1)c1ccccc1
31%[activator]	Cc1cc(Cl)ccc1OCC(=O)Nn1c(C)ccc1C
-8%	CCOCCn1c(=NC(=O)/C=C/c2ccccc2Cl)sc2cc(NC(C)=O)ccc21
-4%	CC(=O)Nc1ccc(S(=O)(=O)NCCN2CCNC2=O)cc1Cl
-2%	CCOc1cc(CNCCN2CCOCC2)ccc1OCc1ccccc1Cl
-7%	Cn1nnnc1NCc1ccc(Cl)c(Cl)c1
